Assay outcomes: PubChem, ICCB-Longwood Screening Facility, Harvard Medical School
AID504770: growth inhibitors of E. coli YBA685 in a screen for V. cholerae RctB (chromosome II replication) inhibitors | z-score (test concentration not listed) | AID 504770 | 0.27% of 130,000 active | E. coli YBA685 rctB-dependent plasmid, OD600 growth, 3 h; active compounds read low;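 active = z-score under -2 on both plates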;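 also: wells of about 30 µL received 100 nL stock; score is relative to mean and SD of the test wells; the first replicate is given; strong numbers were not always called active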
CapD inh: blocks the Bacillus anthracis CapD enzyme; purified CapD enzyme, fluorescence intensity read-out; active compounds read low; some hits fall short of the stated cut; 0.23% of 140,000 active; z-score (concentration not given with the values);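 active = z-score under -4 in either of two replicates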;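 also: stock transfer was 100 nL into about 40 µL; score is relative to mean and spread of the plate; one replicate is shown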
An asterisk follows results filed as active; i = inactive; / = no result given; & = joins results of further samples.

SMILES | AID504770 | CapD inh
CC1(C)CC(NC(=O)CCCCC(=O)NC2CC(C)(C)NC(C)(C)C2)CC(C)(C)N1 | / | 0.21
O=C(NCCC1=CCCCC1)c1cc2c(=O)[nH]c3ccccc3c2s1 | / | -0.41
O=C(c1ccco1)N1CCN(C2(c3ccccc3)C(=O)c3ccccc3C2=O)CC1 | -0.1 | 0.03
O=C1NC(=S)NC(=O)C1c1ccccc1 | 0.25 | 0.24
CC1(C)OC(=O)C(C2C3CC4CC(C3)CC2C4)C(=O)O1 (configuration not stated) | 1.4 | -0.17
CCOC(=O)C1=C(c2ccccc2)NC(=O)NC1c1cc(Br)c(O)c(OC)c1 (configuration not stated) | / | 0.58
Cc1nn(-c2ccccc2)c2sc(C(=O)OCC(=O)NC3CCCCCC3)cc12 | -1.7 | /
O=C(NCc1ccco1)c1ccc2c(c1)N(Cc1ccccc1)C(=O)c1ccccc1S2=O (configuration not stated) | 0.7 | -0.99
N#Cc1ccc(NC(=O)CNCCN2CCOCC2)cc1 | 0.05 | /
O=C(O)CCC(=O)N1CCCCC1 | 1.6 | -0.49
CCOC(=O)c1c(-c2ccccc2)oc2ccc(OC(=O)CC)cc12 | 1 | i
CNc1oc(-c2ccc(OC)cc2)nc1C#N | -2.1 | 79
COC(=O)c1sc2nc(-c3cccs3)cc(-c3ccc(F)cc3)c2c1N | / | 0.085
Cn1c(=O)c2c(nc3n(-c4ccc(Oc5ccccc5)cc4)c(-c4ccc(Br)cc4)cn23)n(C)c1=O | / | 8.4
CCOc1ccc2nc(SCc3ccc4c(c3)OCO4)sc2c1 | 0.5 | -0.36
N#Cc1nc(Cc2ccccc2)oc1NCCc1ccccc1 | -0.7 | -0.29
CCN(CC)c1nc(-c2ccccc2F)nc2ccccc12 | -0.4 | 0.58
Cc1ccc(S(=O)(=O)Nc2ccc3oc4c(c3c2)CC(C(C)(C)C)CC4)c(C)c1 (configuration not stated) | / | -0.39
Cc1ccc(C(=O)Nc2ncnc3c2c(-c2ccc(C)cc2)nn3C(C)(C)C)cc1 | / | 0.7
c1ccc(COc2ccc(-c3nc(-c4ccc5sc6ccccc6c5c4)c(-c4ccccc4)[nH]3)cc2)cc1 | / | 21
COCCNC(=S)N1CCC(NC(=O)NC23CC4CC(CC(C4)C2)C3)CC1 | 0.3 | /
O=C(Cc1ncon1)Nc1cc(Cl)cc(Cl)c1 | 1.1 | -0.025
COc1cccc(-c2onc3ccc(C(=O)/C=C/c4ccc(C)cc4)cc23)c1 | / | 0.26
COC(=O)c1scc(Br)c1O | / | -0.1
CCOP(=O)(OCC)C(Nc1ccc(C(C)C)cc1)c1ccc([N+](=O)[O-])cc1 (configuration not stated) | / | -0.47
CC(=O)Nc1ccc(S(=O)(=O)Nc2ccc([N+](=O)[O-])cc2)cc1 | 1.1 | 1.1
CCCCCCc1nnc(NC(=O)CC)s1 | 0.3 | /
CC(=O)Nc1ccc(-c2nnc3n2CCCCC3)cc1 | -0.65 | 0.075
CCOC(=O)C1=C(N)n2c(s/c(=C\c3ccc(CC)cc3)c2=O)=C(C#N)C1c1ccc(CC)cc1 (configuration not stated) | / | -0.14
Cn1cnnc1SCC(=O)NC1=NCCS1 | / | -0.35
CCc1ccc(/C=C2\SC(=S)N(CCC(=O)N3CCCc4ccccc43)C2=O)cc1 | -0.05 | 0.11
O=C(O)Cc1ccc2c(c1)OCCCO2 | 2.5 | /
c1ccc(C(c2ccccc2)N2CCN(c3cnc4ccccc4n3)CC2)cc1 | / | 0.56
O=C1NC(=NC2CCCC2)S/C1=C\c1ccc(Cl)cc1 | -1.2 | /
Oc1ccc2ccccc2c1C=NCc1cccnc1 | -0.4 | -3.7
CC1(C)Cc2ccccc2-c2nnc(-c3ccccc3)n21 | 0.25 | /
O=c1c2cnn(-c3ccccc3)c2nc(-c2ccco2)n1-c1ccccc1 | 0.4 | -0.22
Brc1ccc(-c2cn3nc4c(nc3n2)CCCC4)cc1 | / | -0.035
O=c1cccc2n1CC1CC2CN(Cc2nnc(-c3ccccc3F)o2)C1 (configuration not stated) | 0.35 | 6
CCC(=O)N(C)c1nnc(-c2cccc(C)c2)s1 | -0.25 | /
COc1ccc2oc(C)c(C(=O)c3oc4ccccc4c3N)c2c1 | / | 1.1
CCC(=O)N1CCc2cc(Br)cc(S(=O)(=O)NCCN3CCN(c4ccccc4F)CC3)c21 | -0.85 | 0.53
C=COCCn1c(-c2nonc2N)nc2ccccc21 | -1.7 | /
CCc1nnc(NC(=O)c2sc(-c3cccc(Cl)c3)nc2C)s1 | 0.05 | /
CSc1nnc(-c2ccccc2)n1/N=C/c1cn[nH]c1-c1ccccc1 | 1.4 | 0.15
CC(=O)c1ccc(NC2=NC(C)(C)Cc3cc(C)c(C)cc32)cc1 | / | -0.58
COCCCNC(=O)c1ccccc1Sc1ccc(NC(C)=O)nc1 | / | -0.54
CC(O)CN=Cc1cc2ccccc2nc1Cl (configuration not stated) | -1.2 | /
CC(=O)c1cc2c(cc1NC(=O)CSc1nc3[nH]ncc3c(=O)n1-c1cccc(C(F)(F)F)c1)OCO2 | / | 14
CCOC(=O)C1=C(C)NC(C)=C(C(=O)OCC)C1c1ccc(OC(=O)c2oc3ccccc3c2C)cc1 | / | 3.5

Further structures follow:
SMILES | AID504770 | CapD inh
CC(=O)N(C)C1(c2nnnn2CCOC(=O)Nc2ccc(Cl)cc2)CCCCC1 | 0.8 | 0.26
O=C1C=C(NCc2ccccc2)CCC1 | -0.5 | -0.46
O=C(Nc1c(F)cccc1F)c1c(F)cccc1F | / | 0.26
Cc1ccc(/C=C2\SC(=S)N(NC(=O)c3ccccc3F)C2=O)o1 | -1.4 | /
COc1cc(C)c(S(=O)(=O)N2CCCC(C)C2)cc1C (configuration not stated) | 0.45 | /
Cc1ccccc1-c1nnc(N)s1 | 1.5 | 0.28
O=C(CSc1ncnc2c1nnn2-c1ccc(F)cc1)NC1CCCCC1 | -0.9 | /
COc1ccc(OC)c(S(=O)(=O)N(C)CC(=O)N2CCN(c3ccc(F)cc3)CC2)c1 | -0.4 | -0.14
O=S1(=O)CCC(N2CCOCC2)C1 (configuration not stated) | -0.15 | -0.085
COC(=O)c1ccc(CSc2nc(-c3ccccc3)cs2)o1 | -0.25 | /
c1ccc(COc2ccc(-c3nnc4ccc5ccccc5n34)cc2)cc1 | / | -0.3
CCN1CCN(C(=O)Cc2c(C(=O)O)[nH]c3ccccc23)CC1 | / | 0.22
CC(C)(C)c1ccc(C(=O)NC2CCS(=O)(=O)C2)cc1 (configuration not stated) | / | -0.28
CN1C(=O)C=CC1=O | 0.85 | /
COc1ccccc1NC(=O)NN1CCCCC1 | 1.5 | /
NC(=O)N/N=C/c1ccc([N+](=O)[O-])o1 | -3.5* | 0.18&-0.86
O=C(O)c1ccc(C(=O)NCc2ccco2)c(C(=O)O)c1 | -0.7 | -1.2
Cc1nnc(SCc2ccc(F)cc2)s1 | 1.1 | -0.28
O=S(=O)(c1cccs1)N1CCN(c2ccccc2F)CC1 | -1.4 | -0.24
COc1ccc(N(CN2C(=O)C3C4c5ccccc5C(c5ccccc54)C3C2=O)C(C)=O)cc1 (configuration not stated) | / | 0.23

Brought forward from above: 2 entries; new compounds follow.
SMILES | AID504770 | CapD inh
O=S(=O)(c1cccs1)N1CCN(c2ccccc2F)CC1 | -1.4 | -0.24
COc1ccc(N(CN2C(=O)C3C4c5ccccc5C(c5ccccc54)C3C2=O)C(C)=O)cc1 (configuration not stated) | / | 0.23
CCN(CC)c1ccc(-n2nc3cc(C)c(NC(C)=O)cc3n2)cc1 | 1.2 | /
CC1=C(C)CC(C(=O)Nc2ccc(-n3cnnn3)c(C)c2)C(C(=O)O)C1 (configuration not stated) | -0.25 | -0.33
O=C1C(c2ccccc2)C(=O)N(c2ccccc2)C(=O)N1c1ccccc1 | / | 0.47
O=C(CSC1=NC(c2ccco2)CC(C(F)(F)F)N1)NCc1ccc(F)cc1 (configuration not stated) | 1.3 | /
Nc1nc(-c2ccc3c(c2)CCC3)cc(C(F)(F)F)n1 | / | 10
N#Cc1ccc(-c2ccc(F)cc2)n(Cc2ccc(Cl)c(Cl)c2)c1=O | / | 0.69
C=CCOc1ccc(CN2CCN(C(=O)C(CCCC)NC(C)=O)CC2)cc1 (configuration not stated) | / | 0.22
CCOc1cc(/C=C2\N=C(c3cccc(F)c3)OC2=O)cc(Br)c1OC(C)=O | / | 0.72
O=C(c1ccc2c(c1)OCCCO2)c1ccc2ccccc2c1 | 0.15 | 0.58
CN(C)/C=C/C(=C\C(=O)C(F)(F)F)Nc1ccc(Br)cc1 | / | 0.32
CCC(c1nnc(SCC(=O)N2CC(=O)Nc3ccccc32)o1)N(C)C (configuration not stated) | -0.65 | /
COc1ccc(N2CCN(CC(O)COc3ccc(-c4ccccc4)cc3)CC2)cc1 (configuration not stated) | -0.05 | 1.2
CC(C)(O)[C@@H]1[C@H]2OC(=O)[C@@H]1[C@]1(O)C[C@H]3O[C@]34C(=O)O[C@H]2[C@]14C | -0.1 | 0.32
CCOc1ccc(C2C(N3C(=O)c4c(Cl)c(Cl)c(Cl)c(Cl)c4C3=O)C(=O)N2c2cc(Cl)cc(Cl)c2)cc1 (configuration not stated) | / | 0.085
Cc1ccc(N2C(=O)NC(=O)/C(=C\c3ccccc3)C2=O)cc1 | 0 | -0.18
Cc1ccc(OCC(=O)Nn2cnc3ccccc32)cc1 | -0.15 | /
CCn1nnnc1SCC(=O)NC1CCCC1 | 0.6 | /
CCCN1CCN(C(=O)c2sc3ncnc(N4CCN(c5ccccc5F)CC4)c3c2C)CC1 | / | 0.64
Cn1c(CNC(=O)OC(C)(C)C)nnc1SCc1ccccc1 | -0.15 | -0.05
Cc1cc(C)n2nc(C(=O)OCC(=O)c3ccccc3)nc2n1 | -0.15 | /
CN1CCC(N(C)C(=O)c2cc3c(s2)CCCC3)CC1 | -0.45 | -1.1
CCOC(=O)COc1ccc(=O)n(-c2ccccc2)n1 | 1.1 | -0.4
N#Cc1c(NC(=O)CN2C(=O)C3CC=C(Cl)CC3C2=O)sc2c1CCCC2 (configuration not stated) | / | -0.39
CC(C)(C)OC(=O)N1CCC(c2nc(-c3ccc(Cl)s3)cs2)CC1 | -0.9 | -0.14
O=C(c1ccc(Cl)cc1)N1CCCCC(Sc2nnnn2Cc2cccs2)C1=O (configuration not stated) | 2 | /
O=C(COc1ncnc2sccc12)NCC1CCCO1 (configuration not stated) | 1.8 | /
Cc1ccccc1-n1c(=S)sc2c1nc(SCC(=O)O)n1c3ccccc3nc21 | / | -0.16
Cc1ccc(C(=O)OCc2ccc(C#N)cc2)s1 | -1.2 | -0.85
CCc1cc2c(=O)c(-c3nncn3-c3ccccc3)coc2cc1OCC(=O)O | 0.4 | /
OC1(C(F)(F)F)CC(c2ccc3c(c2)CCO3)=NN1 (configuration not stated) | -1.2 | -0.48

Filtered by structure, the entries above with an aryl methoxy group.
SMILES | AID504770 | CapD inh
CCOC(=O)C1=C(c2ccccc2)NC(=O)NC1c1cc(Br)c(O)c(OC)c1 (configuration not stated) | / | 0.58
CNc1oc(-c2ccc(OC)cc2)nc1C#N | -2.1 | 79
COc1cccc(-c2onc3ccc(C(=O)/C=C/c4ccc(C)cc4)cc23)c1 | / | 0.26
COc1ccc2oc(C)c(C(=O)c3oc4ccccc4c3N)c2c1 | / | 1.1
COc1cc(C)c(S(=O)(=O)N2CCCC(C)C2)cc1C (configuration not stated) | 0.45 | /
COc1ccc(OC)c(S(=O)(=O)N(C)CC(=O)N2CCN(c3ccc(F)cc3)CC2)c1 | -0.4 | -0.14
COc1ccccc1NC(=O)NN1CCCCC1 | 1.5 | /
COc1ccc(N(CN2C(=O)C3C4c5ccccc5C(c5ccccc54)C3C2=O)C(C)=O)cc1 (configuration not stated) | / | 0.23
COc1ccc(N2CCN(CC(O)COc3ccc(-c4ccccc4)cc3)CC2)cc1 (configuration not stated) | -0.05 | 1.2

New compounds follow
SMILES | AID504770 | CapD inh
COc1ccc(NC(=O)Cc2cccc3ccccc23)cc1 | -0.1 | 0.33
Cc1c(C(N)=O)sc2ncn(Cc3ccccc3)c(=O)c12 | -0.55 | /
O=C(Nc1ccccc1N1CCOCC1)c1cccs1 | / | -0.13
S=C(NCCc1ccccc1)N1CCC(CCCC2CCN(C(=S)NCCc3ccccc3)CC2)CC1 | / | 0.31
c1ccc(-n2c(SCC3CCCO3)nnc2-c2cccs2)cc1 (configuration not stated) | 2.2 | /
Cc1cc(C(=O)NNC(=O)c2cc(F)cc(F)c2)n[nH]1 | / | -0.52
CC(C)N(C(=O)CSc1nnc(Cc2cccc3ccccc23)n1N)C(C)C | 0.35 | /
O=C(N1CCc2ccc(S(=O)(=O)N3CCN(c4ccccc4)CC3)cc2C1)C(F)(F)F | / | -0.42
O=C(CNCCc1ccc(Cl)cc1Cl)NCc1ccco1 | -0.75 | /
COc1cccc(NC(=O)c2cc(-c3cccc(OC)c3)n[nH]2)c1 | 0.4 | -0.38
O=S(=O)(Cc1ccccc1)NCc1ccccn1 | 0.15 | 0.33
Cc1nc2nc(-c3ccc(Cl)cc3)cn2nc1C | / | 0.16
O=C(NC1CCCCC1)C1c2ccccc2C(=O)N2CCc3ccccc3C12 (configuration not stated) | / | 5.3
COc1ccc(-c2cn3c(c2C)-c2ccc(C)n2CC3)cc1 | -0.05 | /
CCOC(=O)C1=C(C)N=c2s/c(=C/c3ccc(NC(C)=O)cc3)c(=O)n2C1c1ccccc1OC(C)C (configuration not stated) | / | 0.035
Cc1cc(N2CCOCC2)nc(SCC(=O)NCc2ccco2)n1 | -0.85 | /
Oc1ccc(Br)cc1-c1nc2ccccc2s1 | 0 | 0.43
COc1cccc(C=C2C(=O)NC(=S)NC2=O)c1OC | / | -0.84
COc1ccc(/C=C2\SC(=O)N(CNc3cccc(C(F)(F)F)c3)C2=O)cc1 | / | -1.2
Cc1cc(NC(=O)CN2CCCCC2)no1 | 0.5 | /
N#C/C(=C\c1ccccc1Cl)S(=O)(=O)c1ccc(Cl)cc1 | -1.1 | -0.1
CCCCN(Cc1ccco1)C(=O)c1noc2c1CCCC2 | 0.85 | -0.28

Not all compounds are listed; rates above refer to the full screens.
